Measles inh – inhibitors of measles virus growth in infected cells; infected Vero cells, GFP fluorescence, 64 h; stronger effect = lower value; 0.1% of 33,000 active; AID 745; z-score (no concentration beside the values);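 active = z-score under -3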;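 also: score is relative to mean and SD of the compound wells of a plate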
An asterisk follows results filed as active. These rows are one share of the data; rates above refer to the full screens.

Structure,Measles inh
CCOc1ccccc1C1Nc2ccccc2NC2=C1C(=O)CC(C)(C)C2 (centres undefined),-0.67
Cc1nc2c(C(=O)NCc3ccccc3Cl)c[nH]n2c(=O)c1Cc1ccccc1F,-1
CCc1ccccc1NC(=O)CSc1nc2nc(C)c(Cc3ccccc3C)c(C)n2n1,-0.89
CN(C)c1ccc(N2C(=O)CC(Sc3ncccc3C(=O)O)C2=O)cc1 (centres undefined),-0.67
COc1cc(C(=O)Nc2ccc(Cl)c(-c3nc4ccccc4o3)c2)cc(OC)c1OC,0.78
CCC(=O)NC(c1ccc(OC)c(OC)c1)c1ccc2cccnc2c1O (centres undefined),-0.14
CC1=C(C(=O)N2CCCCC2)C(c2ccc(Cl)cc2)C2=C(CCCC2=O)N1 (centres undefined),0.64
COc1ccccc1NC(=O)c1ccc(N2CC3CC(C2)c2cccc(=O)n2C3)c(NC(=O)c2cc3ccccc3oc2=O)c1 (centres undefined),-1.67

New compounds follow
Structure,Measles inh
COCCNc1nc2c(c(=O)[nH]c(=O)n2C)n1CCCc1ccccc1,-0.12
COc1ccc(-c2csc(Nc3ccc(S(N)(=O)=O)cc3)n2)cc1C,0.7
CCOc1cccc(NC(=O)C2CC(=O)N(C)C(=Nc3cccc(OC)c3)S2)c1 (centres undefined),-1.16
Cc1nc2c(sc3nc4c(cc32)COC(C)(C)C4)c(=O)n1CCc1ccccc1,-0.56
COc1cc(OC)cc(C(=O)N2CCN(C(=O)Cc3ccccc3)CC2)c1,-0.33
COc1ccc(C2C(C(=O)NCCc3ccc(OC)c(OC)c3)c3ccccc3C(=O)N2C)cc1 (centres undefined),0.58
Cc1c(C(=O)N2CCCC2)sc2ncn(Cc3ccccc3F)c(=O)c12,-1.14
C=CCOC(=O)C1=C(C)NC2=C(C(=O)CC(C)(C)C2)C1c1ccc(OC)c(OC)c1 (centres undefined),-0.4

Look-ups from the results shown:
Measles inh result of COCCNc1nc2c(c(=O)[nH]c(=O)n2C)n1CCCc1ccccc1 = -0.12
Measles inh result of C=CCOC(=O)C1=C(C)NC2=C(C(=O)CC(C)(C)C2)C1c1ccc(OC)c(OC)c1 (centres undefined) = -0.4

(next part)
Structure,Measles inh
O=C(Nc1ccc2nn(-c3ccccc3)nc2c1)c1ccc(-c2cccc([N+](=O)[O-])c2)o1,-0.52
Cc1ccc2oc(-c3ccc(Cl)c(NC(=O)c4cccc(Cl)c4)c3)nc2c1,-0.25
CCCn1c(NC(C)c2cc(Cl)ccc2O)nc2ccccc21 (centres undefined),-0.26
CCN(CC)c1ccc(C=NS(=O)(=O)c2ccc(C)cc2)cc1,-0.24
O=C(Nc1cccc(Cl)c1)c1cc2cc3ccc(Cl)cc3nc2o1,-1.11
CC(C)(C)C1CCc2c(sc(NC(=O)c3ccc(Cl)cc3)c2C(=O)N2CCC(C(N)=O)CC2)C1 (centres undefined),0.38
O=C1C2C3C=CC(C3=C(c3ccccc3)c3ccccc3)C2C(=O)N1c1cccc2cccnc12 (centres undefined),0.25
O=C1CSC2(C(=O)Nc3ccccc32)N1c1cccc(Br)c1 (centres undefined),-1.09

Other records.
Structure,Measles inh
CCN(c1cccc(C)c1)S(=O)(=O)c1ccc2[nH]cc(C(=O)N3CCN(c4ccc(OC)cc4)CC3)c(=O)c2c1,0.59
O=C(CSc1ncccc1C(=O)O)Nc1ccccc1Cl,-0.45
O=C(Nc1nc(-c2cc3ccccc3oc2=O)cs1)c1ccc(S(=O)(=O)N2CCc3ccccc32)cc1,1
Cc1cccc(N(CC(=O)NCc2cccnc2)S(=O)(=O)c2ccccc2)c1C,1.23
C=CCNC(=O)C1C(=O)NC2(C)CC1c1ccccc1O2 (centres undefined),0.43
O=C(NCCN1CCCC1)C1CCN(S(=O)(=O)c2cccc3nsnc23)CC1,0.15
COc1ccc2nc3oc(C(=O)Nc4cccc(C#N)c4)cc3cc2c1,1.79
O=C(Nc1ccc(NC(=O)c2cccs2)cc1)c1ccc2c(c1)OCCO2,0.34

(listing goes on)
Structure,Measles inh
O=C(CSc1nc2c(cnn2-c2ccccc2)c(=O)[nH]1)N1CCc2ccccc21,-1.87
Cc1oc2cc3oc(=O)c4c(c3cc2c1-c1ccccc1)CCCC4,0.81
CCc1ccc(O)c(N=Cc2cc(C)ccc2O)c1,-0.93
O=C1NCCCN1Cc1ccc(Cl)cc1,1.89
CC(C)N=c1cccccc1NC(C)C,0.09
O=C(CSc1cccc2cccnc12)Nc1ccc(OC(F)(F)Cl)cc1,-1.09
Cc1nc2ccc(CCO)cc2s1,-0.11
CC1=C(C(=O)OCC2CCCO2)C(c2ccc(F)cc2)C2=C(CCCC2=O)N1 (centres undefined),1.12

Later entries.
Structure,Measles inh
Cc1ccc2nc(SCC(=O)Nc3cccc(C)c3C)[nH]c2c1,0.53
CC1=C(C(=O)OCC(C)C)C(c2cccc(F)c2)N2C(=O)C(C)SC2=N1 (centres undefined),-0.97
Cc1ccc(CNC(=O)Cn2c(=O)n(Cc3ccccc3)c(=O)c3c(C)c(C)sc32)cc1,-0.23
COc1ccc(N=Cc2cccc(OC)c2O)c(OC)c1,0.91
Cc1cccc(NS(=O)(=O)c2ccccc2)n1,0.75
O=C(NCc1ccc(F)cc1)c1cc2c(=O)[nH]c3ccccc3c2s1,-1.73
CCOc1c(Br)cc(C(c2c(C)[nH][nH]c2=O)c2c(C)[nH][nH]c2=O)cc1OC,0.02
O=C(Nc1ccc(Br)cc1)c1ccccc1I,-0.05

Carrying on.
Structure,Measles inh
COCCOC(=O)c1ccc(NC(=O)c2cccc(Br)c2)cc1,1.09
Cc1cccc(CN2CCN(CC(=O)NC3CCCCCCC3)C2=O)c1,-0.29
CC1CCCCN1c1cc(Nc2ccc3c(c2)OCO3)c2c3c(onc13)-c1ccccc1C2=O (centres undefined),-0.28
COC(=O)c1c[nH]c2ccc(S(=O)(=O)N(C)C3CCCCC3)cc2c1=O,0.42
COc1ccc([N+](=O)[O-])cc1NC(=O)c1sc2nc(C)nc(N3CCCCC3)c2c1C,-0.51
CCCC(=O)NC(c1ccccc1OC)c1cc(Cl)c2cccnc2c1O (centres undefined),0.57
O=C(c1ccc(F)cc1)c1ccc(N2CCCC2)cc1,0.62
Cc1cccc(NC(=O)CSc2nc3c([nH]c4ccccc43)c(=O)n2C)c1C,-0.08

Continuation:
Structure,Measles inh
CCN(CC)CCCNC(=O)C1c2ccccc2C(=O)N2CCc3ccccc3C12 (centres undefined),-0.62
Cc1ccccc1NC(=O)C(=O)NCc1ccccn1,1.41
O=C(Cn1c(=O)n(-c2ccc(F)cc2)c(=O)c2sccc21)NC1CCCCC1,-0.14
C=C(C)Cn1c(SCC(=C)Br)nc2sc3c(c2c1=O)CC(C)(C)OC3,-0.52
CC(C)CC(=O)Nc1cccc(-c2nc3ncccc3o2)c1,-0.46
CC(C)(C)c1ccc(-c2nnc(SCC(=O)N3CCOCC3)o2)cc1,-0.49
CCc1c(-c2ccccc2)n(-c2cccc(C(F)(F)F)c2)c2nc3c(c(=O)n(C)c(=O)n3C)n12,0.39
COc1cccc(C=Nc2cccc3c(=O)[nH][nH]c(=O)c23)c1O,1.2

Part of the list above in order of length of the SMILES, rising:
Structure,Measles inh
Cc1ccccc1NC(=O)C(=O)NCc1ccccn1,1.41
O=C(c1ccc(F)cc1)c1ccc(N2CCCC2)cc1,0.62
CC(C)(C)c1ccc(-c2nnc(SCC(=O)N3CCOCC3)o2)cc1,-0.49
COc1cccc(C=Nc2cccc3c(=O)[nH][nH]c(=O)c23)c1O,1.2
CCN(CC)CCCNC(=O)C1c2ccccc2C(=O)N2CCc3ccccc3C12 (centres undefined),-0.62
C=C(C)Cn1c(SCC(=C)Br)nc2sc3c(c2c1=O)CC(C)(C)OC3,-0.52
CCc1c(-c2ccccc2)n(-c2cccc(C(F)(F)F)c2)c2nc3c(c(=O)n(C)c(=O)n3C)n12,0.39

Continuation.
Structure,Measles inh
O=C(O)CCC(=O)c1sc(Cl)c(Cl)c1Cl,1.52
COc1ccccc1CN1CCN(C(=O)c2cccs2)CC1,0.6
Cc1c(NC(=O)c2ccc(Cl)cc2[N+](=O)[O-])c(=O)n(-c2ccccc2)n1C,-0.13
Oc1c(C(Nc2ccccn2)c2ccc3c(c2)OCO3)ccc2cccnc12 (centres undefined),-0.75
Cc1ccc(C2CC(C(F)(F)F)n3nc(C(=O)N4CCN(c5cccc(Cl)c5)CC4)cc3N2)cc1 (centres undefined),2.1
Cn1c2c(c(=O)[nH]c1=O)C(c1ccccc1)C1=C(N2)c2ccccc2C1=O (centres undefined),-0.58
COc1ccc(NC(=O)c2noc3c2CC(C(C)(C)C)CC3)cc1 (centres undefined),-1.2
CCC(=O)N1CCc2cc(S(=O)(=O)NCCC(=O)N3CCN(c4ccccn4)CC3)ccc21,-0.94

(next part)
Structure,Measles inh
COc1ccc(N2CCN(C(=O)C3c4cc(OC)c(OC)cc4C(=O)N4CCc5ccccc5C34)CC2)cc1 (centres undefined),1.33
COc1ccc(-c2ccc3c(N)c(C(=O)Nc4ccc(Br)cc4)sc3n2)cc1,0.06
CCc1ccc(Nc2cc(C(=O)NCCN3CCCC3)c3ccccc3n2)cc1,-1.36
Cc1nc2ncccn2c1-c1csc(Nc2ccc(Cl)cc2)n1,-1.48
CCN1CCN(C(=O)CSc2cc(=O)n(C)c3cc(Cl)ccc23)CC1,-0.49
CCC(C)(C)C1CCC2(CC1)SCC(=O)N2c1ccc(F)cc1 (centres undefined),1.05
Cc1cc(NC(=O)CN(C)S(=O)(=O)c2cccs2)ccc1Br,2.47
CCOc1ccccc1NC(=O)CCS(=O)(=O)c1cc(Br)cc2c1N(C(C)=O)CC2,-0.07

(next part)
Structure,Measles inh
CCc1ccc(NS(=O)(=O)c2ccc3[nH]cc(C(=O)N(C)CCC#N)c(=O)c3c2)cc1,0.17
CCn1cc(C(=O)NCCCOC)c2cc(OC)c(OC)cc2c1=O,0.03
O=C(CCN1C(=O)c2cccc([N+](=O)[O-])c2C1=O)NCc1ccco1,2.37
COc1ccccc1C1C=C(c2ccc(F)cc2)Nc2nc(-c3ccc(Cl)cc3)nn21 (centres undefined),-0.03
Cc1ccc(-c2ccc(-c3cc(C(=O)O)c4ccccc4n3)o2)cc1Cl,-0.52
COc1ccc(OC)c(C2C(C(=O)Nc3ccc(F)cc3)=C(C)NC3=C2C(=O)CC(C)(C)C3)c1 (centres undefined),0.58
COc1ccc(COC(=O)C2=C(C)NC3=C(C(=O)CC(C)(C)C3)C2c2ccc(Cl)cc2)cc1 (centres undefined),-0.86
CCOc1cc2[nH]c(=O)n(CCC(=O)N3CCN(c4cccc(Cl)c4)CC3)c(=O)c2cc1OCC,-0.35

(listing goes on)
Structure,Measles inh
O=C(CSc1nc2ccccc2c(=O)n1Cc1ccco1)N1CCCCCC1,0.54
COc1ccc(NC(=O)CSc2cn(Cc3ccccc3Cl)c3ccccc23)cc1,-1.23
CC(=O)c1ccc(NC(=O)CN2C(=O)C3C4CCC(C4)C3C2=O)cc1 (centres undefined),-0.81
COc1ccc(C)cc1S(=O)(=O)N1CCN(S(=O)(=O)c2cc(C)ccc2OC)CC1,-0.55
CCn1c(=O)n(CC(=O)Nc2ccc(C)c(F)c2)c(=O)c2ccccc21,-0.54
O=C(Nc1ccccc1Br)c1cc(S(=O)(=O)NCc2ccco2)ccc1F,1.14
Nc1c(C(=O)O)nnn1Cc1ccccc1,0.8
COc1ccc(C2CC(C(F)(F)F)n3nc(C(=O)Nc4sc5c(c4C(N)=O)CCC(C)C5)c(Br)c3N2)cc1 (centres undefined),1.78

Next results follow:
Structure,Measles inh
O=c1c2sc(=S)n(Cc3ccco3)c2nc(SCc2cc(=O)n3ccccc3n2)n1-c1ccccc1,0.01
O=C(NCc1cccnc1)c1cc(-c2ccc(Cl)cc2)on1,1.11
CCC(C)OC(=O)C1=C(C)NC(=O)NC1c1ccccc1F (centres undefined),0.43
COc1ccc(C(=O)Nc2ccc(-c3nc4ccccc4o3)c(O)c2)cc1OC,1.06
CCOC(=O)c1c(C)oc2c1c(C(c1ccccc1Cl)N1CCOCC1)c(O)c1ccccc12 (centres undefined),0.27
Cc1ccc(C(=O)Nc2ccccc2N)cc1,-0.4
CCOC(=O)CCc1nc2ccccc2n(Cc2ccc(Cl)cc2)c1=O,-0.1
COc1ccc(NS(=O)(=O)c2cc(Br)cc3c2N(C(=O)C2CC2)CC3)c(OC)c1,-0.78

Next results:
Structure,Measles inh
COc1ccccc1-c1csc(NC(=O)c2ccc(S(=O)(=O)N(C)C)cc2)n1,0.44
COc1ccccc1CNC(=O)CCS(=O)(=O)Cc1ccccc1C,1.43
Cc1ccc(-c2nn(C)c(=O)c3ccccc23)cc1CNC(=O)c1ccccc1,-0.72
O=C(CCn1c(=S)oc2ccccc21)Nc1ccccc1Cl,1.15
O=[N+]([O-])c1ccc(NC2OC(CO)C(O)C2O)cc1 (centres undefined),0.38
CSc1nnc2c(n1)OC(c1ccc(C(=O)O)cc1)Nc1ccccc1-2 (centres undefined),1.76
COc1ccc(N2CCN(CCn3c(=S)[nH]c4ncccc4c3=O)CC2)cc1,0.11
O=C(NC1CCCC1)c1ccc2c(c1)ncn2C1CCCCCC1,1.64

Additional records follow.
Structure,Measles inh
O=C(CCN1C(=O)c2ccccc2S1(=O)=O)NCc1ccco1,-0.63
CSc1cccc(NC(=O)c2nn(-c3ccc(C)cc3)c(=O)c3c2c2ccccc2n3C)c1,0.58
O=C(NCCS)C1CCC(Cn2c(=O)[nH]c3ccsc3c2=O)CC1 (centres undefined),-0.93
O=C1CSC(c2ccccc2Br)N1c1ccccc1F (centres undefined),-0.72
C=CCN(CC=C)S(=O)(=O)c1ccc(C(=O)N=c2sc3cccc(OC)c3n2C)cc1,0.49
Cc1ccccc1C(=NS(=O)(=O)c1ccc(Cl)cc1)Nc1ccccc1,-0.79
O=C(Cn1cnc2sc3c(c2c1=O)CCCC3)N1CCN(Cc2ccc3c(c2)OCO3)CC1,-0.97

Compound activity from PubChem.
